KCNQ2 pot: potentiators of rat KCNQ2 potassium channel; O88943; CHO-K1 KCNQ2, FluxOR thallium flux fluorescence; hits give high values; B-score at 10 µM; 310,000 compounds, 0.54% hits; AID 2239;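 active means fluorescence ratio B-score at least 3 SD of library B-scores, with initial fluorescence B-score within 3 SD, cut at about 5.3 in these data; same plate scores as AID 2156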;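 further: B-score of peak minus minimum over baseline fluorescence ratio after K+ and Tl+ stimulus; positive B-score means potentiation of KCNQ2 with more thallium influx and brighter signal; only the inactives scoring about 0 or higher are listed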
Target sequence (O88943 whole entry, looked up): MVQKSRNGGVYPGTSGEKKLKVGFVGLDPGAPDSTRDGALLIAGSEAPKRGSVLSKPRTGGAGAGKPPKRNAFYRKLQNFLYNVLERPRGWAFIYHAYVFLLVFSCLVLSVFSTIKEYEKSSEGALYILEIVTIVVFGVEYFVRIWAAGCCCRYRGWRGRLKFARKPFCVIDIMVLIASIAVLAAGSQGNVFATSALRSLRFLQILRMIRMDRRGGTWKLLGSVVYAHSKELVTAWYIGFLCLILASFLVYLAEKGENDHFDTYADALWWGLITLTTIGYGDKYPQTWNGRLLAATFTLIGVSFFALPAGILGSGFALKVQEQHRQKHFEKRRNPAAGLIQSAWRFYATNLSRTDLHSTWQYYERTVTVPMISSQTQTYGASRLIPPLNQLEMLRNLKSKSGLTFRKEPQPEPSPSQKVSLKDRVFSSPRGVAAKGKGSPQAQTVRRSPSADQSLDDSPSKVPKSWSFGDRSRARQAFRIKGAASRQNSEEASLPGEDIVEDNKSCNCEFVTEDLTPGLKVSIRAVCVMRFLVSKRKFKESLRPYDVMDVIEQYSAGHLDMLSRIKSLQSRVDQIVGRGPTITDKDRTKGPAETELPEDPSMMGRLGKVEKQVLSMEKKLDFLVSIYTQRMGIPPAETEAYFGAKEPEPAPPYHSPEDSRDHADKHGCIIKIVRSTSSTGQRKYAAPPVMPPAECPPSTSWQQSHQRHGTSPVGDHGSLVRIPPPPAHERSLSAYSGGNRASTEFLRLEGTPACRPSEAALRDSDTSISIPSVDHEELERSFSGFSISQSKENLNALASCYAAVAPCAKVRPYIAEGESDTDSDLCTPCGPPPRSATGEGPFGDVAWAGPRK
KCNQ2 pot baseline: also measured in KCNQ2 pot; calls as there; B-score; compound at 10 µM; measured here: initial fluorescence intensity artifact check;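 brightness before thallium and not channel activity; 0 = typical well and far values either way flag optical interference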
Starred values were filed as active, the others as inactive. Not all compounds are listed; rates above refer to the full screens.

Screening OCCC1CN(CC2CCCCC2)CCN1C1CCCC1 (centres undefined) returned KCNQ2 pot 0.37 and KCNQ2 pot baseline -0.14.
For CN1CCN(C(CC(=O)Nc2cccc(O)c2)C(=O)O)CC1 (centres undefined) the results were KCNQ2 pot 0.86 and KCNQ2 pot baseline 0.25.
Screening O=C(C1=C(O)C(=O)N(c2ncccn2)C1c1ccc(F)cc1)c1ccco1 (centres undefined) returned KCNQ2 pot 0.08 and KCNQ2 pot baseline -1.3.
`CN1C(=O)C2(C(C#N)=C(N)Oc3n[nH]c(-c4ccc(Cl)cc4)c32)c2ccccc21` (centres undefined) gave KCNQ2 pot 1.1 and KCNQ2 pot baseline -0.83.
Screening CN(C)/C=C/C(=O)c1ncc(C(F)(F)F)cc1Cl returned KCNQ2 pot 0.51 and KCNQ2 pot baseline 1.
Screening O=C1C2C3C=CC(CC3)C2C(=O)N1c1ccc([N+](=O)[O-])cc1 (centres undefined) returned KCNQ2 pot 0.25 and KCNQ2 pot baseline -0.33.
`CCOCCCNC(=O)C(c1ccc(C)cc1)N(Cc1ccc2c(c1)OCO2)C(=O)c1ccccn1` (centres undefined) gave KCNQ2 pot 0.63 and KCNQ2 pot baseline -0.84.
For O=C(c1cccs1)N1CCN(S(=O)(=O)c2ccccc2)CC1 the results were KCNQ2 pot 1.5 and KCNQ2 pot baseline 0.08.
For COc1ccc(NC(=O)c2ccc([N+](=O)[O-])s2)c([N+](=O)[O-])c1 the results were KCNQ2 pot 1.7 and KCNQ2 pot baseline -0.6.
For Cc1ccc(N2C(=O)C3CC3C2=O)cc1 (centres undefined) the results were KCNQ2 pot 0.53 and KCNQ2 pot baseline 0.56.
`COc1ccc(-c2nc3n(n2)C(c2ccccc2Cl)C(C(N)=O)=C(C)N3)cc1` (centres undefined) gave KCNQ2 pot 1.1 and KCNQ2 pot baseline 0.33.
For COc1ccc(S(=O)(=O)NCC(=O)N(CC(=O)NCc2ccco2)Cc2ccccc2)cc1 the results were KCNQ2 pot 2 and KCNQ2 pot baseline 0.35.
Screening C=CCc1cccc(CNc2cnc3ccccc3c2)c1O returned KCNQ2 pot 1 and KCNQ2 pot baseline 3.6.
Screening Cc1cc(C)c(NC(=O)Cn2nnc(C(=O)NCc3ccc4c(c3)OCO4)c2N)c(C)c1 returned KCNQ2 pot 0.68 and KCNQ2 pot baseline -0.99.
`O=C(COC(=O)CCN1C(=O)c2cccc([N+](=O)[O-])c2C1=O)NCc1ccccc1` gave KCNQ2 pot 0.68 and KCNQ2 pot baseline -2.3.
CC(CC(=O)N(C)c1c(N)n(Cc2ccccc2)c(=O)[nH]c1=O)c1ccccc1 (centres undefined) was read as KCNQ2 pot 1 and KCNQ2 pot baseline -0.62.
O=C(NCCCCl)C1CC(=O)N(CCc2ccc(F)cc2)C1 (centres undefined) was read as KCNQ2 pot 1.8 and KCNQ2 pot baseline -1.4.
Cc1ccc(C(=O)CCC(=O)Nc2ccccc2C)c(C)c1 was read as KCNQ2 pot 1.6 and KCNQ2 pot baseline -1.1.
CC1=NN(C(=O)CCc2ccccc2)C(c2ccccc2)C1 (centres undefined) was read as KCNQ2 pot 0.48 and KCNQ2 pot baseline -0.51.
`Cc1ccc(C)c(NC(=O)C(=O)NCc2ccccn2)c1` gave KCNQ2 pot 1.3 and KCNQ2 pot baseline 0.2.
`Cc1onc(-c2ccccc2)c1-c1ccnc(N)n1` gave KCNQ2 pot 0.25 and KCNQ2 pot baseline -1.2.
For O=C(O)CCN1CC2([N+](=O)[O-])CC=C(OCCO)C([N+](=O)[O-])(C1)C2 (centres undefined) the results were KCNQ2 pot 1.2 and KCNQ2 pot baseline -0.31.
Screening COCCNC(=O)c1ccc(N2CC3CC(C2)c2cccc(=O)n2C3)c(NC(=O)c2cc(OC)cc(OC)c2)c1 (centres undefined) returned KCNQ2 pot 1.1 and KCNQ2 pot baseline -0.47.
O=C(O)C(Cc1ccccc1)N1C(=O)c2cccc3cccc(c23)C1=O (centres undefined) was read as KCNQ2 pot 0.27 and KCNQ2 pot baseline -1.3.
For Cc1ccc(S(=O)(=O)NCC(C)n2nc(C)cc2C)cc1 (centres undefined) the results were KCNQ2 pot 2.7 and KCNQ2 pot baseline 0.
Screening C=CCn1c(NCCO)nc2sc3c(c2c1=O)CCC3 returned KCNQ2 pot 0.65 and KCNQ2 pot baseline -2.
CN(C)c1cccc(C(=O)OCC(=O)NC2CCCC2)c1 was read as KCNQ2 pot 0.31 and KCNQ2 pot baseline -0.31.
Screening O=C(O)c1ccc(CSc2ccccn2)cc1 returned KCNQ2 pot 0.07 and KCNQ2 pot baseline -0.57.
`Cc1cccc(NS(=O)(=O)c2ccc(C(=O)NCCCN3CCCC3=O)cc2)c1C` gave KCNQ2 pot 2 and KCNQ2 pot baseline 0.34.
For CCNc1nc(NCC)nc(SCCOc2ccc(C)cc2)n1 the results were KCNQ2 pot 0.03 and KCNQ2 pot baseline 0.71.
`Cc1ccccc1CN1CCC(C(=O)Nc2ccc(Oc3cccnc3)cc2)CC1` gave KCNQ2 pot 0.03 and KCNQ2 pot baseline -2.4.
`COc1cc(CC(=O)NCCc2ccc(S(N)(=O)=O)cc2)cc(OC)c1OC` gave KCNQ2 pot 0.12 and KCNQ2 pot baseline -2.4.
Screening Cc1cccc(NC(=O)CSc2nc(C3CC3)nc3ccccc23)c1 returned KCNQ2 pot 4.3 and KCNQ2 pot baseline 1.3.
`COc1ccc(NC(=O)c2ccc3c(SCC(=O)O)c4c(nc3c2)CCCC4)c(OC)c1` gave KCNQ2 pot 1.2 and KCNQ2 pot baseline 0.12.
For O=C(NCC1CCCO1)C1CCC(=O)N1Cc1ccc(F)cc1 (centres undefined) the results were KCNQ2 pot 0.36 and KCNQ2 pot baseline 1.1.
Screening C=CC[N+](C)(C)C/C(Cl)=C(\Cl)c1ccccc1 returned KCNQ2 pot 2.2 and KCNQ2 pot baseline -0.55.
Screening COc1ccc(Cn2nnnc2C(c2cccs2)N2CCOCC2)cc1 (centres undefined) returned KCNQ2 pot 0.38 and KCNQ2 pot baseline -1.9.
Screening COc1ccc(COC(=O)c2cc(S(=O)(=O)N3CCCCC3)ccc2N2CCOCC2)cc1 returned KCNQ2 pot 1 and KCNQ2 pot baseline -0.71.
Screening COc1ccc2oc(=N)c(C(=O)Nc3ccc(Br)cc3)cc2c1 returned KCNQ2 pot 0.97 and KCNQ2 pot baseline -1.8.
Screening Cc1ccc(C)c(NC(=O)CCN2CCC(C)CC2)c1 returned KCNQ2 pot 0.62 and KCNQ2 pot baseline 0.2.
CC(C)c1ccc(N(CC(=O)N/N=C/c2ccc(OC3CSC3)cc2)S(=O)(=O)c2ccccc2)cc1 was read as KCNQ2 pot 0.28 and KCNQ2 pot baseline -1.
`COc1ccc2c(c1)CCc1c(C(=O)NCCc3ccc(OC)c(OC)c3)noc1-2` gave KCNQ2 pot 0.02 and KCNQ2 pot baseline -1.4.
Screening COc1ccc(C(CC(=O)O)NC(=O)c2ccco2)cc1 (centres undefined) returned KCNQ2 pot 0.35 and KCNQ2 pot baseline 0.95.
Screening O=C(NCc1ccc2c(c1)OCO2)C1CCC(=O)N1C1CCCCC1 (centres undefined) returned KCNQ2 pot 3 and KCNQ2 pot baseline -1.5.
`Cc1ccc(C)c(NC(=O)C2CCCN(S(=O)(=O)c3cccnc3)C2)c1` (centres undefined) gave KCNQ2 pot 0.03 and KCNQ2 pot baseline -0.43.
`CC(C)OC(=O)CN1C(=O)C(C)(C)Oc2ccc(C(=O)NC3CC3)cc21` gave KCNQ2 pot 0.81 and KCNQ2 pot baseline -0.9.
For CN(CC(=O)Nc1ccccc1)CC(=O)Nc1ccccc1Cl the results were KCNQ2 pot 2 and KCNQ2 pot baseline -1.
O=C(COC(=O)c1cnccn1)c1ccc(Cl)cc1 was read as KCNQ2 pot 0.81 and KCNQ2 pot baseline 2.
For COC(=O)Cc1ccc(NC(=O)C(c2ccccc2)c2ccccc2)cc1 the results were KCNQ2 pot 0.65 and KCNQ2 pot baseline -0.09.
`CCc1ccc(-c2cc(C)no2)cc1S(=O)(=O)NCc1ccc(OC)c(OC)c1` gave KCNQ2 pot 0.19 and KCNQ2 pot baseline -0.31.
Screening Cc1ccc(C(=O)N2NC(c3ccc(F)cc3)C3C(=O)N(c4ccc(C)cc4)C(=O)C32)cc1 (centres undefined) returned KCNQ2 pot 0.01 and KCNQ2 pot baseline 1.4.
`O=C(CSc1nc(N2CCCCC2)nc(N2CCCCC2)n1)c1ccccc1` gave KCNQ2 pot 32* and KCNQ2 pot baseline 1.4*.
Screening CN(C)S(=O)(=O)c1ccc(C(=O)N2CCOCC2)cc1 returned KCNQ2 pot 0.94 and KCNQ2 pot baseline -3.5.
For CCOc1cc(N2CCOCC2)c(OCC)cc1NC(=O)c1c(-c2ccccc2Cl)noc1C the results were KCNQ2 pot 1.5 and KCNQ2 pot baseline 0.07.
COc1ccc(OCc2nnc(SCC(=O)N3C(C)CCCC3C)o2)cc1 (centres undefined) was read as KCNQ2 pot 0.06 and KCNQ2 pot baseline 1.
For COc1ccc(NC(=O)C2CCCN2c2ccc(OC)c(OC)c2)cc1OC (centres undefined) the results were KCNQ2 pot 0.58 and KCNQ2 pot baseline -0.68.
`N#C/C(=C(/O)CN1CCOCC1)c1nc2ccccc2s1` gave KCNQ2 pot 0.39 and KCNQ2 pot baseline 0.13.
For Cc1ccc2cccc(OCC(=O)Nc3ccc(N4CCOCC4)cc3)c2n1 the results were KCNQ2 pot 0.52 and KCNQ2 pot baseline -0.1.
`COCCCNC(=O)c1ccc(Cn2c(=O)c3ccccc3n(Cc3ccc(C)cc3)c2=O)cc1` gave KCNQ2 pot 0.22 and KCNQ2 pot baseline 0.56.
Cc1cc(C)c(OCCCCCNCCO)c(C)c1 was read as KCNQ2 pot 1.1 and KCNQ2 pot baseline 0.39.

Of the compounds above, these contain two or more sulfur atoms.
For O=C(c1cccs1)N1CCN(S(=O)(=O)c2ccccc2)CC1 the results were KCNQ2 pot 1.5 and KCNQ2 pot baseline 0.08.
CC(C)c1ccc(N(CC(=O)N/N=C/c2ccc(OC3CSC3)cc2)S(=O)(=O)c2ccccc2)cc1 was read as KCNQ2 pot 0.28 and KCNQ2 pot baseline -1.

Five records picked at random from those above, as already listed:
For COC(=O)Cc1ccc(NC(=O)C(c2ccccc2)c2ccccc2)cc1 the results were KCNQ2 pot 0.65 and KCNQ2 pot baseline -0.09.
Cc1cc(C)c(OCCCCCNCCO)c(C)c1 was read as KCNQ2 pot 1.1 and KCNQ2 pot baseline 0.39.
`O=C(CSc1nc(N2CCCCC2)nc(N2CCCCC2)n1)c1ccccc1` gave KCNQ2 pot 32* and KCNQ2 pot baseline 1.4*.
For CCOc1cc(N2CCOCC2)c(OCC)cc1NC(=O)c1c(-c2ccccc2Cl)noc1C the results were KCNQ2 pot 1.5 and KCNQ2 pot baseline 0.07.
`CC(C)OC(=O)CN1C(=O)C(C)(C)Oc2ccc(C(=O)NC3CC3)cc21` gave KCNQ2 pot 0.81 and KCNQ2 pot baseline -0.9.

Further entries.
Screening O=C(COc1ccc(Cl)cc1)N1CCN(c2ccc([N+](=O)[O-])c(N3CCOCC3)c2)CC1 returned KCNQ2 pot 0.88 and KCNQ2 pot baseline -0.34.
`CSC1=C(C#N)C(c2cccc(Br)c2)CC(=O)N1` (centres undefined) gave KCNQ2 pot 2.2 and KCNQ2 pot baseline -1.1.
c1ccc(CSc2nnc(-c3ccncc3)o2)cc1 was read as KCNQ2 pot 0.23 and KCNQ2 pot baseline 0.46.
For COCC1CCN(Cc2nc(-c3ccc4c(c3)OCO4)no2)C1 (centres undefined) the results were KCNQ2 pot 0.01 and KCNQ2 pot baseline -0.46.
`Cc1cccc(Cc2nnc(NC(=O)c3cccc(S(=O)(=O)N4CCOCC4)c3)s2)c1` gave KCNQ2 pot 2.1 and KCNQ2 pot baseline -0.02.
For C#CCOCCOCCOCCNc1nc(N2CCN(C(=O)[C@H]([C@@H](C)CC)n3cc(CCCN=C(N)N)nn3)CC2)nc(N2CCN(C(=O)[C@H](CCCCN)n3cc(CCCC)nn3)CC2)n1 the results were KCNQ2 pot 0.18 and KCNQ2 pot baseline -0.31.
Screening CN(c1ccccc1)S(=O)(=O)c1ccc(C(=O)Nc2nnc(-c3ccco3)o2)cc1 returned KCNQ2 pot 0.16 and KCNQ2 pot baseline -0.12.
`Nc1nnc(-c2cc3ccccc3oc2=O)s1` gave KCNQ2 pot 0.02 and KCNQ2 pot baseline -0.12.
`CC1(C)C(c2cccs2)=[N+]([O-])C2(CCCCC/C2=N\NC(N)=S)N1O` (centres undefined) gave KCNQ2 pot 0.77 and KCNQ2 pot baseline -1.4.
`Cc1ccc2nc(-c3ccccn3)c(Nc3ccccc3C)n2c1` gave KCNQ2 pot 1.2 and KCNQ2 pot baseline -1.1.
For O=C(NCc1ccc(Cl)cc1)c1ccc(Br)o1 the results were KCNQ2 pot 1.3 and KCNQ2 pot baseline -0.82.
`CSc1nsc(SC)c1NC(=O)OCc1ccccc1` gave KCNQ2 pot 1.8 and KCNQ2 pot baseline -0.56.
For Cn1c2c(c(=O)n(C)c1=O)C(CC(=O)Nc1ccc(F)cc1)C(=O)N2 (centres undefined) the results were KCNQ2 pot 0.77 and KCNQ2 pot baseline -3.5.

High-throughput results deposited in PubChem BioAssay by Johns Hopkins Ion Channel Center.
